# From PubChem BioAssay
# HCMV NEC inh: inhibitors of HCMV UL50-UL53 interaction, biochemical, HTRF; inhibition, % (concentration not given with the values); HCMV UL50-UL53 nuclear egress complex (human cytomegalovirus); normalized percent inhibition; hit rate 0.15% among 190,000;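 active = both replicates at 50% or more, plus weaker picks with an unusually low signal ratio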;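 also: stock transfer was 100 nL into about 20 µL; 0% = negative control wells and 100% = wells with untagged competitor protein; inactives centre near -12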
# Sa growth 42C: S. aureus growth inhibition at 42 and 30 °C, primary screen, LtaS inhibitor project, RN4220, two temperatures. OD600, 20 h, 42 °C; hits give low values. relative growth, % (no concentration beside the values). hit rate 0.53% among 170,000;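 active = growth at 42 °C up to 50% and 20 or more points under that at 30 °C, or under 10% at both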;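 also: 300 nL library stock went into each well; scaled to the means of positive and negative controls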
# GIV-Gai inh: inhibitors of GIV peptide binding to Galpha-i3, primary screen, biochemical, fluorescence polarization, FITC-GIV GBA peptide, rat Galphai3. percent of control (FP), % (test concentration not listed). hit rate 0.42% among 210,000. 90 min; hits give low values; scaled: aluminum fluoride 0%, vehicle 100%;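 active = replicate mean at 85% of control or lower, very high polarization wells dropped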;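 also: wells of about 15 µL received 100 nL stock; the first replicate is given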
# Target sequence (P08753 whole entry, looked up): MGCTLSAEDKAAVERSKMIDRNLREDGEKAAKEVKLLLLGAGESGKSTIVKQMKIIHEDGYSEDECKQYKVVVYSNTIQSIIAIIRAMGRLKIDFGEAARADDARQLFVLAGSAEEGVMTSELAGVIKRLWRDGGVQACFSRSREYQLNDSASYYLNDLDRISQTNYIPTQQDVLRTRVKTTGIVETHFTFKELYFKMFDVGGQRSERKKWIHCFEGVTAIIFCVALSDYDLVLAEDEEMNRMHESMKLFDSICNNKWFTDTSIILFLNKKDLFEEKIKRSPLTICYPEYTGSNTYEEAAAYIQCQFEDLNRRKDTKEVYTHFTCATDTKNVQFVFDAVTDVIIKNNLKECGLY
# Sa growth 42C second temp: further read-out of Sa growth 42C, marked with its call; relative growth, %; measured here: growth at 30 °C;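 optical density after 20 h as mean of two plates; 100% = untreated growth and lower means inhibition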
# * hit, by the source's call; · = no result given; & = joins results of further samples.
SMILES,HCMV NEC inh,Sa growth 42C,Sa growth 42C second temp,GIV-Gai inh
CCc1ccc(-c2ccc(=O)[nH]n2)cc1S(=O)(=O)N1CCN(C)CC1,-83,·,·,102
Cc1ccc(S(=O)(=O)c2ncsc2SCC(=O)NCCN2CCOCC2)cc1,-13,·,·,104
O=C(Cc1csc2nc3sc4c(c3c(=O)n12)CCC4)N(CCO)CCO,-32,90,89,·
CCCn1c2ccccc2c2cnn(CC(=O)N3CCCC(C(=O)OCC)C3)c(=O)c21 (stereo not given),·,109,89,105
Cc1ccccc1C(=O)OCC(=O)c1sc2ccc(Cl)cc2c1C,-8,92,90,99
Cc1cc(C(=O)Nc2ccc3c(c2)OCCO3)oc1C,-32,95,91,105
Cc1cc2c(cc1S(=O)(=O)NCC1CCCO1)n(C)c(=O)c(=O)n2C (stereo not given),·,110,98,103
CC1(C)N=C(c2ccccc2)C(=S)N1C(=O)c1ccccc1,·,114,88,100
O=C(O)c1ccc2c(c1)ncn2C1CCCC1,-5,92,96,97
CN(C)C=Nc1ccc2nonc2c1,-44,83,80,·
COCCNC(=O)CSc1nc(-c2ccc(C)cc2)[nH]c1-c1ccc(OC)cc1,-3,106,92,102
CCN1C(=O)N(c2cc(C)ccc2C)C2CS(=O)(=O)CC21 (stereo not given),-18,96,82,103
C#CC(C)(CC)NC(=O)Cn1nnc(-c2ccc(OCc3ccccc3Cl)cc2)n1 (stereo not given),-31,98,89,103
COc1cc2nc(-c3ccc4c(c3)C(=O)N(CC(C)C)C4=O)oc(=O)c2cc1OC,·,82,96,108
CCn1nc(C)c2c(-c3ccccc3)cc(=O)n(C(C)C(=O)Nc3ccc(OC)c(OC)c3)c21 (stereo not given),·,104,92,97

# Quoted from the listing:
# Cc1ccc(S(=O)(=O)c2ncsc2SCC(=O)NCCN2CCOCC2)cc1 in GIV-Gai inh shows 104
# CCCn1c2ccccc2c2cnn(CC(=O)N3CCCC(C(=O)OCC)C3)c(=O)c21 (stereo not given) in Sa growth 42C shows 109
# CCn1nc(C)c2c(-c3ccccc3)cc(=O)n(C(C)C(=O)Nc3ccc(OC)c(OC)c3)c21 (stereo not given) in Sa growth 42C second temp shows 92

# Remaining list, next part:
SMILES,HCMV NEC inh,Sa growth 42C,Sa growth 42C second temp,GIV-Gai inh
Cc1ccc(N=C2NC(=O)CS2)c(C)c1,2,91,100,·
CCCn1c(=O)c2ccc(C(=O)NC(C)C)cc2n2c(SCC(=O)c3ccc(OC)cc3)nnc12,-11,·,·,112
Cc1ccc(CNC(=O)C2CCC(CNc3nc(=S)[nH]c4ccccc34)CC2)o1 (stereo not given),-21,97,92,103
CCc1cccc(NS(=O)(=O)c2cc(Br)cc3c2N(C(=O)C2CC2)CC3)c1,·,116,86,102
O=C(c1cc2c(s1)-c1ccccc1S(=O)(=O)C2)N1CCc2ccccc2C1,-68,·,·,104
CCOC(=O)Nc1ccc2c(C)cc(=O)oc2c1,-14,92,95,108
O=C(Cc1ccccc1)NCCN1CCCC1,-6,108,80,·
Cc1ccc2[nH]cc(CCNC(=O)C3CCCO3)c2c1 (stereo not given),-11,92,87,100
CCC(Sc1nnc(C)n2c1cc1sccc12)C(=O)Nc1ccccc1F (stereo not given),·,110,92,107
Cn1c(=O)c2cc(C(=O)N3CCCCC3)sc2c2ccccc21,-24,106,84,97
CC(C)Cn1c(SCc2ccc(C#N)cc2)nc2ccccc2c1=O,-2,70,89,·
CC1=COC=C(C=NCc2ccccc2)N1c1ccccc1,-4,84,114,·
Cc1ccc2oc(=O)c3cc(C(=O)NCCCN4CCCC4)sc3c2c1,-13,80,93,111
O=C(NC1CCS(=O)(=O)C1)C1CCCC1 (stereo not given),-3,103,94,·
Cc1ccc(Cn2cnc3oc(C)c(C)c3c2=O)cc1,-6,·,·,103

# Random excerpt: two records from the list, in no set order.
SMILES,HCMV NEC inh,Sa growth 42C,Sa growth 42C second temp,GIV-Gai inh
Cn1c(=O)c2cc(C(=O)N3CCCCC3)sc2c2ccccc21,-24,106,84,97
CCc1cccc(NS(=O)(=O)c2cc(Br)cc3c2N(C(=O)C2CC2)CC3)c1,·,116,86,102

# The list goes on.
SMILES,HCMV NEC inh,Sa growth 42C,Sa growth 42C second temp,GIV-Gai inh
COC(=O)c1cscc1NC(=O)CC(CC(=O)O)c1ccccc1 (stereo not given),-2,101,89,101
COC(=O)c1cc(=O)c2ccc(OC)cc2o1,-6,103,87,95
CSc1nncc(-c2ccc(Cl)cc2)n1,-38,113,91,98
CC1(C)CC(=O)C=C(NCCCn2ccnc2)C1,·,93,84,107
O=S(=O)(NC1CCCCC1)c1cccc2nsnc12,-73,·,·,107
Cn1ncc2c(=O)n(CC(=O)Nc3cccnc3Cl)cnc21,-20,87,85,·
CCC(NC(=O)c1ccccc1NC(=O)c1ccco1)C(=O)Nc1ccc(C)cc1 (stereo not given),-11,81,74,·
Cn1nc(-c2ccc(Cl)cc2)c2cc(C(=O)N3CCCC3)sc21,·,84,81,100
CCOC(=O)c1oc2ccccc2c1COC(=O)COc1ccccc1OCC,6,125,102,·
Cc1cc2n(n1)CCCN2C(=O)Nc1ccccc1C(F)(F)F,·,94,86,104
CCCSc1nc(-c2ccccc2)[nH]c1S(=O)(=O)c1ccc(C)cc1,-26,78,71,98
N#Cc1ccc(N=C/C(Br)=C/c2ccccc2)cc1,-30,63,38,·
Cc1nnsc1-c1nc(C(=O)O)cs1,-19,100,105,103
CN(C(=O)c1cn(C)c(=O)cc1C(F)(F)F)c1ccc(Cl)c(Cl)c1,-35,94,94,102
COc1ccc(CCNC(=O)c2ccc3c(c2)N(Cc2ccccc2)CCS3)cc1OC,-19,108,82,102

# Overlap with the part before: seven entries, followed by the next part.
SMILES,HCMV NEC inh,Sa growth 42C,Sa growth 42C second temp,GIV-Gai inh
CCOC(=O)c1oc2ccccc2c1COC(=O)COc1ccccc1OCC,6,125,102,·
Cc1cc2n(n1)CCCN2C(=O)Nc1ccccc1C(F)(F)F,·,94,86,104
CCCSc1nc(-c2ccccc2)[nH]c1S(=O)(=O)c1ccc(C)cc1,-26,78,71,98
N#Cc1ccc(N=C/C(Br)=C/c2ccccc2)cc1,-30,63,38,·
Cc1nnsc1-c1nc(C(=O)O)cs1,-19,100,105,103
CN(C(=O)c1cn(C)c(=O)cc1C(F)(F)F)c1ccc(Cl)c(Cl)c1,-35,94,94,102
COc1ccc(CCNC(=O)c2ccc3c(c2)N(Cc2ccccc2)CCS3)cc1OC,-19,108,82,102
Cc1cc(C)n(CNc2nccs2)n1,-12,100,84,·
Cc1cccc(Cn2c(C3CCCO3)nc3ccccc32)c1 (stereo not given),-28,·,·,107
Cc1ccc(CNC(=O)CCCn2c(=O)c3ccccc3n(CC(=O)c3ccccc3)c2=O)cc1,-2,98,86,100
Cc1ccc(-c2csc(Nc3ccc4c(c3)OCO4)n2)cc1C,-2,90,91,·
Cc1nc(-c2ccccc2)sc1C(=O)/C=C/N(C)C,-124,105,84,103
CCc1ccc(CN(C(=O)Nc2cccc(Cl)c2)c2ccccn2)cc1,7,75,81,104
CCN(CC)C(=O)/C(C#N)=C/c1cc(Br)cs1,-46,93,92,·
Cc1ccc(NC(=O)Nc2ccc(SCc3cc(=O)n4c(ncn4C(C)C)n3)cc2)cc1Cl,-23,·,·,104
CCOC(=O)c1oc2ccccc2c1COC(=O)c1c(CC)noc1C,-20,78,91,·
Cc1ccc(-c2c(C(F)(F)F)nn3c(NCc4ccccc4)cc(C)nc23)cc1,-16,·,·,101
COc1ccc(-c2nc(CSc3nncn4c3cc3sccc34)c(C)o2)cc1OC,·,99,94,103
CC(C(=O)NCCCn1ccnc1)(c1ccccc1)c1ccccc1,-10,100,87,·
O=C(CSc1nc(=O)n(CCN2CCOCC2)c2c1CCC2)Nc1ccc(Cl)c(Cl)c1,·,102,96,97
CC1CCCN(C(=O)CSc2c3c(nc4cc(Cl)ccc24)CCCC3)C1 (stereo not given),-17,78,85,109
COC(=O)C1CN(C(=O)COc2ccccc2OC)c2ccccc2O1 (stereo not given),-15,93,78,106

# Reformatted tab-delimited: 4 of the compounds above
Structure	HCMV NEC inh	Sa growth 42C	Sa growth 42C second temp	GIV-Gai inh
Cc1ccc(-c2csc(Nc3ccc4c(c3)OCO4)n2)cc1C	-2	90	91	·
Cc1nc(-c2ccccc2)sc1C(=O)/C=C/N(C)C	-124	105	84	103
CCc1ccc(CN(C(=O)Nc2cccc(Cl)c2)c2ccccn2)cc1	7	75	81	104
CCN(CC)C(=O)/C(C#N)=C/c1cc(Br)cs1	-46	93	92	·

# Continuation.
SMILES,HCMV NEC inh,Sa growth 42C,Sa growth 42C second temp,GIV-Gai inh
Cc1n[nH]c(=O)nc1SCC(=O)NC1CCCC1,-22,·,·,96
CCOC(=O)C1=C(CC)OC(N)=C(C#N)C1c1ccccc1 (stereo not given),-11,71,85,104
O=C(NCCN1CCN(c2nccc(C(F)(F)F)n2)CC1)c1ccccc1,-13,103,84,98
Cc1cc(C)n(-c2ccc(C(=O)NCCc3ccc(S(N)(=O)=O)cc3)cc2)n1,-14,90,94,·
O=C(Cc1ccc(Cl)cc1)NCCSc1ccccc1,-2,·,·,95
COc1ccc(N2CC(NC(=O)C3CC3)CC2=O)cc1OC (stereo not given),·,113,90,103&99
CC1CC(C)CN(S(=O)(=O)c2cccc(C(=O)Nc3ncn[nH]3)c2)C1 (stereo not given),-3,105,97,·
O=C(O)c1cccnc1C(=O)N1CCc2c([nH]c3ccccc23)C1C(F)(F)F (stereo not given),-11,113,101,106
Cc1cc(C)cc(N2C(=O)CSC23C(=O)N(CC(N)=O)c2ccccc23)c1 (stereo not given),·,85,87,102
CCOC(=O)c1nc(Nc2cc(OCC)ccc2OCC)c2c(C)noc2n1,-8,·,·,104
O=C(c1cnn2c1NC(c1ccc3c(c1)OCO3)CC2C(F)(F)F)N(Cc1ccccc1)Cc1ccccc1 (stereo not given),8,·,·,100
O=C(Nc1ccccc1Br)N1CCC(CN2CCCC2)CC1,·,108,92,106
Cc1c2cnn(CC(=O)NCc3ccc(F)cc3)c(=O)c2c(C)n1Cc1cccc(Cl)c1,-22,104,84,105
c1ccc(Cc2nc3ccccc3o2)cc1,-28,118,82,97
CCOc1ccc(OCC)c(NS(=O)(=O)c2cc(-c3onc(C)c3C)ccc2OC)c1,·,91,86,96
COC(CNC(=O)c1cc(C)nn1-c1ccccc1)OC,·,89,89,94
CCCc1cc(=O)[nH]c(-n2nc(C)cc2NC(=O)C2CC(=O)N(c3ccc(OC)cc3)C2)n1 (stereo not given),10,·,·,101
Cc1oc(C(=O)O)cc1COc1cccc2ccccc12,-12,109,66,95
Cc1nc(-n2[nH]c(C)c(CCC(C)C)c2=O)sc1C(=O)N1CCN(c2ccccc2)CC1,2,·,·,102
CCOc1ccc(NC(=O)/C(C#N)=C\c2cc(C)n(C)c2C)cc1,-28,113,93,103
CN(C)c1ccc(/C=C2/C(=N)N3N=C(COc4ccccc4)SC3=NC2=O)cc1,·,86,93,150
O=C1N=c2ccccc2=C1c1sc(N2CCCCC2)nc1O,-36,95,89,·
O=C1OC(c2ccccc2)=C/C1=C/c1ccc(Cl)cc1,·,100,86,102
O=c1cc(-c2ccccc2)nc2c(-c3ccccc3)c(C(F)(F)F)[nH]n12,-3,110,80,105
Cc1cc(-c2ccco2)n(CC(=O)NCc2ccccc2Cl)n1,·,106,74,106
Cc1ccc(C2=Nc3cc(C)c(C)cc3NC(=O)C2)cc1,-57,·,·,115
N=C1C(c2nc3ccccc3[nH]2)=C(O)C(c2ccccc2)N1c1ccc2[nH]c(=O)[nH]c2c1 (stereo not given),-14,87,92,·
CCOc1ccc(-c2nc3c(c(SCC(=O)N4CCCCC4)n2)Cc2ccccc2O3)cc1,-28,92,87,106
NC(=O)/C=C/C(=O)Nc1ccccc1Cl,4,21,0,108
O=C1/C(=C\c2ccc(-c3ccc(Cl)c(Cl)c3)o2)SC(=S)N1C1CCS(=O)(=O)C1 (stereo not given),-19,·,·,107
